Yeast UUG start = modulators of yeast start codon fidelity, primary screen, whole organism, S. cerevisiae, single point, plate reader. S. cerevisiae UUG-firefly luciferase reporter, luminescence/redox ratio. activity score, % at 18.7 µM. 350,000 compounds, 0.13% hits. AID 602363, 2012;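 active = replicate mean at a twofold rise or more, about +100% in these data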;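 also: firefly luciferase made from a UUG start codon reports start codon fidelity; reporter light over untreated wells divided by growth signal over untreated wells; some hits fall short of that in this replicate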
CSC inhib = cancer stem cell viability inhibitors, primary screen, luminescence; cancer stem cell-like cells viability; 300,000 compounds, 1.1% hits; inhibition, % at 7.5 µM;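 active = mean at 75% or more and at least half the replicates too; inconclusive = mean and replicates disagree; tested in HMLE shEcad cells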;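 also: 0% = median of negative and 100% = median of positive control wells; the first replicate is given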
Rce1 inh = yeast Rce1p protease inhibitors, primary screen, biochemical, fluorescence, cell-free homogeneous; CAAX prenyl protease 2 (Saccharomyces cerevisiae (strain ATCC 204508 / S288c)), Q03530; yeast membranes, quenched prenylated peptide cleavage fluorescence; calls only; 290,000 compounds, 0.27% hits; AID 2563, 2010;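 active = fall in fluorescence gain of 50% or more versus controls, with final raw signal at or below 3038400; inconclusive = same 50% fall but final raw signal above 3038400; inactive = fall in fluorescence gain under 50%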;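 also: plate controls were neutral control wells for no effect and wells lacking membranes for full effect; tested at 10 µM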
Target sequence (Q03530 whole entry, looked up): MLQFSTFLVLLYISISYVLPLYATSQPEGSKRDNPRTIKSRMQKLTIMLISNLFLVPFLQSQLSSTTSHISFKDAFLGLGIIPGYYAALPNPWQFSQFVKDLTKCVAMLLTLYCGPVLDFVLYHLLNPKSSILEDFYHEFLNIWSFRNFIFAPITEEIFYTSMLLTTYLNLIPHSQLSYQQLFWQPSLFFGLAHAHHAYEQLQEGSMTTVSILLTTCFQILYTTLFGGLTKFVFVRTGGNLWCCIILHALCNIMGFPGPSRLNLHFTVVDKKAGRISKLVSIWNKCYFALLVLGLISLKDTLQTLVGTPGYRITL
eIF4H FP inh = human eIF4H binding inhibitors, primary screen, translation initiation inhibitor project, biochemical, uHTS, fluorescence polarization. inhibition, % at 35 µM. AID 2012, 2009. 290,000 compounds, 0.94% hits. Eukaryotic translation initiation factor 4H (Homo sapiens), Q15056. eIF4H fluorescence polarization binding assay;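 active = 50% or more with normal probe brightness, or confirmed in later tests; inconclusive = above 50% with abnormal brightness, or retests that disagree; inactive = below 50% or failed in later tests; about a fifth of its hits are not listed in these tables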;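 also: calls also rest on retests at 20 µM and on dose response follow-up; 0% = protein and probe with vehicle and 100% = probe without protein; strong numbers were not always called active; many hits fall short of the cut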
Env fusion inh = inhibitors of HIV-1 Env-driven cell-cell fusion, primary screen, HeLa-JRFL effector, CEM21 target cells, luciferase; 360,000 compounds, 1.1% hits; inhibition, % at 12.3 µM; AID 651610, 2012;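 active = mean replicate inhibition score of at least 50 and every replicate individually at or above 50; inconclusive = only one of the two criteria met; inactive = mean below 50 and not all replicates reaching 50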;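 also: 0% = plate neutral controls and 100% = maraviroc near 300 nM; one replicate is shown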
PABP polyA inh = PABP poly(A) RNA binding inhibitors, primary screen, biochemical, fluorescence polarization, uHTS; inhibition, % at 35 µM; 290,000 compounds, 1% hits; AID 2014, 2009;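 active = 50% or more with normal probe brightness, or confirmed in later tests; inconclusive = above 50% with abnormal brightness, or retests that disagree; inactive = below 50% or failed in later tests; about a fifth of its hits are not listed in these tables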;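 also: calls also rest on retests at 20 µM and on dose response follow-up; controls were probe without protein and protein plus probe with vehicle; some compounds called inactive have numbers as strong as hits; many hits fall short of the cut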
Target sequence (P11940 whole entry, looked up): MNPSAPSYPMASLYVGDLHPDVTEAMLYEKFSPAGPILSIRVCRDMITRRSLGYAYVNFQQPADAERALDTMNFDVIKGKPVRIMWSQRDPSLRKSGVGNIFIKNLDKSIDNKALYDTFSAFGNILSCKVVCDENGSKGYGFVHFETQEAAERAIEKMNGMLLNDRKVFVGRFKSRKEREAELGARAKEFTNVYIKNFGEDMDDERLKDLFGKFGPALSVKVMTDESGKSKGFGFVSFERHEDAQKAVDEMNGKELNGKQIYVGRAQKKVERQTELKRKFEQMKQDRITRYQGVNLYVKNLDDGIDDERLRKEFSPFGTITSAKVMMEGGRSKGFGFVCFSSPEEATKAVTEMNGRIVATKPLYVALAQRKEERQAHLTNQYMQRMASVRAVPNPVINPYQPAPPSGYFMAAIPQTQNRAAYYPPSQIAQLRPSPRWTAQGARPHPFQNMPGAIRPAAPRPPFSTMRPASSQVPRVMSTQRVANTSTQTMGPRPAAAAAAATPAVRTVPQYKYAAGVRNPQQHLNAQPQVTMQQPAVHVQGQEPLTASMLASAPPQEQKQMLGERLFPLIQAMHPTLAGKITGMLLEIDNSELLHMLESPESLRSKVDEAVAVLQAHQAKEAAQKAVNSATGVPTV
MT1-MMP act inh = blockers of MT1-MMP proenzyme processing, primary screen, HT1080 RFP-PRO-GFP cells, GFP/RFP fluorescence. Matrix metalloproteinase-14 (Homo sapiens), P50281. GFP/RFP ratio fluorescence, overnight; percent of plate control window, DMSO zero. GFP/RFP ratio change, % at 20 µM. 360,000 compounds, 0.061% hits. AID 651647, 2012;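 active = GFP/RFP ratio change of at least 30% with cell ATP level not reduced by more than half and red fluorescence within 50% of control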; also: strong numbers were not always called active
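system = RFP-PRO-GFP reporter HT1080 cells | dosing = 20 µM single dose, 1% DMSO | timing = overnight cell settling, then overnight compound exposure, 37 °C, 5% CO2 | read-out basis = GFP/RFP fluorescence ratio | controls = DMSO and RFP-L50D-GFP cell wells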
eIF4H FP inh retest = further read-out of eIF4H FP inh, marked with its call; inhibition, %; compound at 20 µM; confirmation average;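 mean of two retest wells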
PABP polyA inh retest = also measured in PABP polyA inh; calls as there; inhibition, %; compound at 20 µM; confirmation repeats;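 mean of two retest wells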
MT1-MMP act inh RFP = recorded beside MT1-MMP act inh, whose call it bears; RFP signal change, %; measured here: RFP expression control read;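 0 = vehicle wells; hits needed this value within 50% of zero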
Active calls of the source: *; i = inactive; ? = inconclusive; . = not tested or not shown; & = joins results of further samples. Some of the compounds tested, so the mix of outcomes need not match the whole.

SMILES | Yeast UUG start | CSC inhib | Rce1 inh | eIF4H FP inh | Env fusion inh | PABP polyA inh | MT1-MMP act inh | MT1-MMP act inh RFP | others
CCN(CC)CCn1c2c(c(SCC(=O)Nc3nc(C)cs3)nc1=O)CCCC2 | -10 | 6 | i | . | -1 | . | 3 | -3
Cc1ccc(-c2cc(C(=O)N/N=C\c3cnn(C)c3C)c3ccccc3n2)cc1C | -13 | -9 | i | -10 | -67 | 8 | 1 | -3
Cc1nn(CCC(=O)NNC(=S)Nc2ccc(F)cc2)c(C)c1[N+](=O)[O-] | -33 | 5 | i | 0 | -15 | -2 | 7 | -3
Nc1ccc(S(=O)(=O)Nc2ccnn2-c2ccccc2)cc1 | -5 | -6 | i | -8 | 1 | -11 | 2 | -2
COC(=O)c1cccc(C23CC4(C2)[C@H](CN(Cc2ccc(C(F)(F)F)cc2)[C@@H]4c2ccccc2)C3c2ccc(C(F)(F)F)cc2)c1 (some centres not stated) | . | 17 | i | -19 | 38 | -9 | . | .
CCN(CC)S(=O)(=O)c1ccc(C(=O)NCC(c2cccs2)N2CCOCC2)cc1 (configuration not stated) | -6 | 3 | i | 4 | . | 1 | 11 | 1
O=C(N/N=C/c1cccnc1)c1ccc(Cl)c(Cl)c1 | . | -3 | i | . | -1 | . | 2 | 1
Cc1ccc(-n2ncc3c(NCc4cccnc4)ncnc32)cc1C | -14 | 0 | i | -14 | -96 | 3 | 5 | -23
Cn1c(NCCc2ccncc2)nc2cc(-c3cccc(Cl)c3)sc2c1=O | -2 | . | . | . | -6 | . | 4 | 7
Cc1cccc(C(=O)Nc2ccc(O)cc2)c1 | -11 | 10 | i | . | -42 | . | 12 | 1
CCCCN(CCCNC(=O)c1ccc(CS(=O)(=O)c2ccc(OC)cc2)o1)Cc1ccccc1 | -7 | -3 | i | 4 | 25 | 4 | -1 | 2
COc1ccc(NC(=O)CCCN2C(=O)/C(=C\c3ccco3)SC2=S)cc1 | -14 | 24 | i | 50 | 21 | 1 | 10 | 11 | eIF4H FP inh retest=-5;PABP polyA inh retest=-2
COc1ccc(Nc2nc(N3CCCC3)nc3ccccc23)c(OC)c1 | 10 | 28 | i | -4 | -83 | -12 | 0 | 1
CC(=O)Nc1ccc(Nc2nc(-c3ccccc3)nc3ccccc23)cc1 | . | 45 | i | -8 | 16 | -7 | 4 | -4
CCN(CC)C(=O)C1CCCN(Cc2ccccc2C(F)(F)F)C1 (configuration not stated) | -17 | 11 | i | -8 | 7 | 9 | 0 | 2
CCOC(=O)CC1CCCCN1Cc1cn(C)nc1-c1ccc2c(c1)OCCO2 (configuration not stated) | -10 | -10 | i | -4 | -17 | -11 | 2 | 5
Cc1ccc(OC(=O)CCN2C(=O)c3ccccc3C2=O)cc1C | -3 | -14 | i | 10 | 1 | -7 | 4 | 1
CC(=O)c1cnn(-c2cc(Oc3ccccc3C)ncn2)c1C | -8 | -2 | i | 2 | . | 4 | 3 | -1
Cc1ccc(NC(=O)C2CCCN2C(=O)c2cccs2)c(C)c1 (configuration not stated) | -10 | -1 | i | 0 | -3 | 44 | -3 | 0
CC(=O)OC1CCC2(C)C(=CCC3C2CCC2(C)C3CC3OC4(CCC(C)CN4)C(C)C32)C1 (configuration not stated) | -14 | . | i | 5 | . | 14 | 4 | 1
O=C(Nc1cccc(C(=O)O)c1)/C(=C\c1ccco1)NC(=O)c1ccccc1Cl | -14 | . | i | 6 | -2 | 12 | -3 | 4
COc1ccc(Cn2c(C)c(C)c(C#N)c2NC(=O)Nc2ccccc2)cc1 | 7 | 1 | i | -10 | -34 | -10 | -2 | 2
FC(F)c1nnc2ccc(Cl)nn12 | . | 8 | i | 4 | 16 | 11 | -1 | 2
Cc1c(C(=O)NCc2ccc3c(c2)OCO3)sc(=O)n1Cc1cccc(F)c1 | -17 | . | . | . | -30 | . | 6 | -3
O=C(NNC(=S)Nc1ccccc1)c1cc(-c2cccnc2)nc2ccccc12 | . | 13 | i | 18 | -1 | -2 | 1 | -1
The listing continues.
SMILES | Yeast UUG start | CSC inhib | Rce1 inh | eIF4H FP inh | Env fusion inh | PABP polyA inh | MT1-MMP act inh | MT1-MMP act inh RFP | others
Cn1nccc1C(=O)NC1CCCc2c1cnn2-c1ccc(C(C)(C)C)cc1 (configuration not stated) | -9 | -6 | i | 0 | 24 | 3 | 4 | -30
CCCN1CCN(CCCNC(=O)CN2C(=O)c3cccnc3Oc3ccc(C)cc32)CC1 | -9 | 10 | i | -8 | -2 | 1 | 0 | 3
CCc1ccc([C@H]2[C@@H]3C(=O)C[C@@H]4C(=O)NC(=O)[C@@H]4[C@@H]3CN2S(=O)(=O)c2ccc(C)cc2)cc1 | 3 | . | . | . | -25 | . | 2 | 6
Cc1cc(S(=O)(=O)NCCC2=CCCCC2)ccc1Br | -7 | -5 | i | . | . | . | 4 | 2
Cn1c(=O)c2c(nc(NCCO)n2C)n(C)c1=O | -14 | 19 | i | 0 | 11 | 2 | 0 | 1
CN1CCN(c2ccc(NC(=O)c3ccc4c(c3)OCO4)cc2)CC1 | -22 | -18 | i | -7 | 6 | 6 | 0 | 0
COC(=O)[C@H]1[C@H]2C[C@H]3c4[nH]c5ccccc5c4CCN3C[C@@H]2CC[C@@H]1O | 4&5 | 15&-12 | i | . | 12&-1 | . | -9&4 | 18&2
CCc1c(C)nc(SCCOc2ccc(OC)cc2)[nH]c1=O | -7 | 12 | i | -8 | -34 | 5 | 0 | -3
CCc1nnc(NC(=O)CSc2nc3c(cc2C#N)CCCC3)s1 | 2 | 6 | i | -4 | . | 10 | 12 | 0
Fc1ccc(-c2nnc(-c3ccc(Cl)cc3Cl)o2)cc1 | -25 | 7 | i | -9 | -242 | -4 | -4 | 1
NS(=O)(=O)c1ccc(NCCCn2ccnc2)c([N+](=O)[O-])c1 | 0 | 0 | i | -9 | -1 | 2 | 3 | 2
Cc1ccc(C(=O)NCC(=O)OCC(=O)c2ccc3c(c2)NC(=O)CO3)cc1C | . | -14 | i | -3 | 0 | -6 | 1 | 2
CCNC(=S)N1CCN(c2ccc([N+](=O)[O-])cc2)CC1 | -19 | 2 | i | -4 | . | -6 | 8 | 2
Cc1ccc(S(=O)(=O)N2CCCCC2)cc1C(=O)N1CCCCCC1 | -11 | -14 | . | . | 2 | . | -1 | 0
CN1CCN(CC(=O)Nc2ccccc2Sc2ccccc2)CC1 | . | -4 | i | 11 | 12 | -2 | -8 | -7
CC(C)NC(=O)Nc1ccc2c(c1)C(=O)N([C@@H](C)CO)C[C@@H](C)[C@H](CN(C)Cc1ccccc1)OCCCC[C@H](C)O2 | 1 | . | . | . | -80 | . | -3 | 0
Cc1ccc(S(=O)(=O)N/N=C/c2cccc3c2OCCO3)cc1 | -3 | -1 | i | 0 | -7 | -2 | 1 | -3
CCOC(=O)N1CCN(S(=O)(=O)CCNC(=O)c2cccc(OC)c2)CC1 | -3 | -1 | i | . | -2 | . | 4 | 3
O=C(ON=C1CCN(S(=O)(=O)c2ccccc2)CC1)c1ccc(Cl)cc1 | -10 | 0 | i | -5 | -21 | 16 | -1 | 0
CCOc1ccc(S(=O)(=O)N2CCOCC2)cc1NS(=O)(=O)c1ccc(OC)c([N+](=O)[O-])c1 | -4 | -4 | i | . | . | . | 1 | -3
COc1ccc(-c2nnc(SCc3cccc(C#N)c3)o2)cc1 | -11 | 3 | i | 9 | . | 4 | -1 | -2
CSc1ccccc1NC(=O)COC(=O)/C=C/c1ccco1 | -1 | 1 | . | . | . | . | 3 | 2
COC(=O)c1sc2ccccc2c1-n1cccc1C(=O)C(=O)Nc1ccc(OC)cc1 | -15 | 55 | i | -4 | . | 5 | -7 | -8
CCOC(=O)c1c(C)[nH]c(C(=O)OCC(=O)NC2CCS(=O)(=O)C2)c1C (configuration not stated) | . | -1 | i | -2 | . | 0 | 3 | 2
O=C(Nc1nnc([C@@H]2C[C@H](O)[C@@H](CO)O2)s1)Nc1cccc(Cl)c1Cl | -10 | . | . | . | -31 | . | 1 | 5
Going on with the list:
SMILES | Yeast UUG start | CSC inhib | Rce1 inh | eIF4H FP inh | Env fusion inh | PABP polyA inh | MT1-MMP act inh | MT1-MMP act inh RFP | others
CCN(c1ccccc1C(=O)O)S(=O)(=O)c1cccc2nsnc12 | . | -10 | i | 3 | 6 | 1 | -2 | 1
O=C(Nc1cccc(Cl)c1)C1C2C=CC3(O2)C1C(=O)N(CCCN1CCCCC1)C3C(=O)NC1CCCCC1 (configuration not stated) | -17 | -15 | . | -9 | -10 | -8 | 5 | 8
CC1CC(C)(C)NC(=S)N1CCCC(=O)N1CCN(c2ccccc2F)CC1 (configuration not stated) | -19 | -9 | i | 1 | 12 | -3 | 3 | 3
Cc1oc(-c2ccccc2F)nc1CS(=O)(=O)CC(=O)N1CCN(Cc2ccccc2)CC1 | 39 | -2 | i | -4 | -90 | -23 | 2 | -2
CCOC(=O)c1ccccc1NC(=O)c1ccc2c(=O)n3c(nc2c1)CCCCC3 | -21 | 70 | i | -5 | -10 | -8 | 0 | -6
Cc1cc2nc3c(=O)n(CCc4ccccc4)c(=O)[nH]c3nc2cc1N | -13 | -1 | i | ? | -2 | ? | -120 | 2
COc1cc2c(cc1OC)CN(C(=O)CN(C)S(=O)(=O)c1ccc(NC(C)=O)cc1)CC2 | 2 | -6 | i | -6 | 9 | -11 | -2 | -3
Cn1c(=O)c2c(ncn2CC(=O)N/N=C/c2ccc(Br)s2)n(C)c1=O | -9 | . | i | -6 | -1 | -4 | -7 | -1
CCOC(=O)C(C)Oc1cccc2c(=O)n(CC(=O)Nc3ccc(OC)cc3)ccc12 (configuration not stated) | -5 | . | . | . | 3 | . | 5 | 1

Six entries drawn at random from those above, as already listed:
SMILES | Yeast UUG start | CSC inhib | Rce1 inh | eIF4H FP inh | Env fusion inh | PABP polyA inh | MT1-MMP act inh | MT1-MMP act inh RFP | others
Cc1oc(-c2ccccc2F)nc1CS(=O)(=O)CC(=O)N1CCN(Cc2ccccc2)CC1 | 39 | -2 | i | -4 | -90 | -23 | 2 | -2
CSc1ccccc1NC(=O)COC(=O)/C=C/c1ccco1 | -1 | 1 | . | . | . | . | 3 | 2
Cc1cccc(C(=O)Nc2ccc(O)cc2)c1 | -11 | 10 | i | . | -42 | . | 12 | 1
CCN(CC)C(=O)C1CCCN(Cc2ccccc2C(F)(F)F)C1 (configuration not stated) | -17 | 11 | i | -8 | 7 | 9 | 0 | 2
Cn1c(=O)c2c(ncn2CC(=O)N/N=C/c2ccc(Br)s2)n(C)c1=O | -9 | . | i | -6 | -1 | -4 | -7 | -1
Cc1ccc(NC(=O)C2CCCN2C(=O)c2cccs2)c(C)c1 (configuration not stated) | -10 | -1 | i | 0 | -3 | 44 | -3 | 0

Assay outcomes (PubChem BioAssay)
